GLA inh pH 4.5: qHTS Assay for Inhibitors of Human alpha-Galactosidase at pH 4.5; Alpha-galactosidase A (Homo sapiens), P06280; purified enzyme, 4-MU-alpha-Gal fluorescence, pH 4.5; activity change, negative = inhibition, % at 105 µM; 230,000 tested, under 10 active; AID 1467, 2008; inconclusive = small, poorly fitted or top-dose-only inhibition, or a rising curve; inactive = flat fitted curve, though single readings scatter; no compound was filed as active;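 note: 0% = full activity with enzyme and -100% = basal without enzyme; dose as in the result columns while the protocol names 77 µM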
Target sequence (P06280 whole entry, looked up): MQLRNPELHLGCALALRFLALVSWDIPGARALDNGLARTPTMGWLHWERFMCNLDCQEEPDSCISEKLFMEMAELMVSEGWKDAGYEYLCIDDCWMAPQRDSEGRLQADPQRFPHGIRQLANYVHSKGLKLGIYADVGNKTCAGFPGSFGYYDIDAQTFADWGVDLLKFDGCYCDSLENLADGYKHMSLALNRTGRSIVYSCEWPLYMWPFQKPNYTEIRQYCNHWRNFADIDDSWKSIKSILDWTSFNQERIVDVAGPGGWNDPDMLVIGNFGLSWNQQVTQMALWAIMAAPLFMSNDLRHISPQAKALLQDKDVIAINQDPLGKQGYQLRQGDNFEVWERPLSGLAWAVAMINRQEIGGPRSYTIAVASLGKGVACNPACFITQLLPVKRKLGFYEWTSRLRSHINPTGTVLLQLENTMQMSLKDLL
Rango complex inh: qHTS Assay for Inhibitors of Rango (Ran-regulated importin-beta cargo) - Importin beta complex formation. Importin subunit beta-1 (Homo sapiens), Q14974. Rango CFP/YFP FRET sensor + importin beta, 45 min. Potency, µM (series often up to 92.2 µM), without a hit: at the highest dose inhibition of complex formation. 0.031% of 340,000 active. AID 540263, 2011; active = rising FRET ratio curve, often small or poorly fitted; inconclusive = mostly compound fluorescence or quenching in the first reads; inactive = flat curves in all reads;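 note: potency is the fitted concentration of half-maximal effect; 0% = DMSO wells and 100% = buffer wells lacking importin beta; nearly all actives have a fitted effect of over 15% in size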
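FRET biosensor (snurportin 1 IBB flanked by EYFP and cerulean), 50 nM, with compound 5 min, then 0.125 microM importin beta in PBS, 1 mM DTT, 0.02% Tween-20, 0.1% BSA. CFP/YFP ratio read after 45 min at room temperature; pre-read flags interference.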
miR-21 reporter: qHTS Assay for Modulators of miRNAs and/orActivators of miR-21 | Potency, µM (highest dose often 38.3 µM), without a hit: at the top dose reporter change, positive = more light | AID 2288, 2010 | HeLa miR-21 FLuc reporter, luciferase, 48 h | 340,000 tested, under 10 active; active = well fitted rising curve with a large enough effect; inconclusive = small, poorly fitted or top-dose-only effect; inactive = no such curve, though single readings can be large or run the other way;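 note: % of control where 0% means no effect; miR-21 action dims this reporter so a rising signal means less miR-21 action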
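Compounds were titrated across several concentrations (up to approximately 40 uM) and incubated 48 hours with HeLa miR-21-FLuc reporter cells (miR-21 target sequence downstream of FLuc, endogenous miR-21). Readout was firefly luciferase luminescence after lytic detection reagent.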
Rango release inh: qHTS Assay for Inhibitors of RanGTP induced Rango (Ran-regulated importin-beta cargo) - Importin beta complex dissociation; 0.071% of 340,000 active; AID 540253, 2011; Potency, µM (doses to about 46.1 µM), inactives show top-dose activity change, negative = inhibition; Snurportin-1 (Homo sapiens) + GTP-binding nuclear protein Ran (Homo sapiens) + Importin …; Biochemical FRET Rango-importin beta, RanGTP-induced dissociation; active means falling FRET ratio curve, often poorly fitted, with flat reads before Ran was added; inconclusive means other falling curves, or compound fluorescence or quenching; inactive means flat or rising ratio curve;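 note: potency is the fitted concentration of half-maximal effect; % of control where 0% means no effect; nearly all actives have a fitted effect of over 45% in size; -100% = wells without RanGTP and RCC1; the record marks most hits as doubtful in a second field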
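Two FRET readings bracket the reaction: one 5 min after compound meets Rango–importin beta, another 45 min after RanGTP-RCC1 (0.6 uM Ran, 0.2 uM RCC1, 2 mM GTP) is added. Only the second defines inhibition.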
An asterisk follows results filed as active; u = inconclusive; x = not tested or not shown; [ ] = dose if it differs, or a comment. A portion of the library. The share of hits here may be higher or lower than overall.

GLA inh pH 4.5 | Rango complex inh | miR-21 reporter | Rango release inh | molecule
x | 0.9% | 0% | 2% | Cc1ccc2nc(SCC(=O)NCc3ccc(F)cc3)[nH]c2c1
-1 | -6.0% | -4% | 14% | CCC(CC)NC(=O)COC(=O)c1ccc(NS(=O)(=O)c2ccc3c(c2)OCCO3)cc1
-5 | u | 6% | u | COCCCNc1c2c3c(cccc3[nH]c1=O)C(=O)c1ccccc1-2
3 | -4.0% | 1% | -9% | O=C(O)CCc1nn2c3ccccc3nc2n(Cc2ccccc2)c1=O
-10 | -2.0% | -20% | -1% | COc1ccc(/C=N/NC(=S)NCc2ccccc2)cc1OC
6 | 9.6% | -8% | 24% | CS(=O)(=O)N(CC(=O)Nc1ccc2c(c1)OCO2)c1ccc2c(c1)OCO2
4 | 0.2% | -3% | 9% | Cc1ccc(-n2ncc3c(=O)n(CC(=O)N4CCN(c5ccccc5F)CC4)cnc32)cc1C
1 | -3.0% | -12% | -2% | O=C(NCc1cccc(Cl)c1)NC(=O)c1csc([N+](=O)[O-])c1
-11 | u | -4% | -4% | Cc1noc(NS(=O)(=O)c2ccc(N/C=C\C(=O)c3ccncc3)cc2)c1C
x | 2.2% | 4% | -9% | Cn1c(CN2CCN(S(C)(=O)=O)CC2)nc2cc([N+](=O)[O-])ccc21
0 | 1.0% | 0% | 10% | Cn1c(C(=O)N2CCOCC2)cnc1Sc1ncc(C(F)(F)F)cc1Cl
-24 | -4.7% | -4% | 15% | Fc1ccc(NC(=S)Nc2cccnc2)c(F)c1F
2 | -2.1% | 4% | 5% | COc1ccc(NC(=O)c2ccc(NC(=O)CSc3nccc(=O)[nH]3)cc2)cc1
4 | -3.7% | -4% | -12% | COc1cccc(CN2CCCC(CNC(=O)c3ccc(F)cc3)C2)c1OC (centres undefined)
2 | u | 0% | u | CC(C)=CCC/C(C)=C/CC/C(C)=C/CC/C(C)=C/CC1=C(C)C(=O)c2ccccc2C1=O
x | -0.6% | -3% | 16% | CC1(C)CC(CC(=O)O)(c2ccc(Cl)cc2)CCO1 (centres undefined)
-11 | 9.9% | -26% | 13% | CC(C)(C)C(=O)Nc1ccc(-c2cc3cc(Cl)ccc3o2)cc1
1 | 0.3% | -6% | 4% | CCOc1ccc(CNC(=O)CCc2cn(C)c3ccccc23)cc1OC
-8 | u | -9% | -26% | COC(=O)c1[nH]c(C)c(/C(O)=C2\C(=O)C(=O)N(CCN3CCOCC3)C2c2ccco2)c1C (centres undefined)
0 | 0.0% | -8% | 1% | Cn1c(NCCCN2CCOCC2)nc2c1c(=O)n(Cc1ccc(Cl)cc1)c(=O)n2C
-6 | -0.7% | -6% | 13% | CN(C)S(=O)(=O)c1ccc(Cl)c(NC(=O)CSc2nc3ccccc3c(=O)n2CCCN2CCOCC2)c1
4 | 5.4% | -14% | -10% | COc1ccc(C(=O)N2CCN(S(=O)(=O)c3ccc(C)cc3C)CC2)cc1OC
-2 | 5.0% | -5% | 1% | CS(=O)(=O)c1ccc2nc(NC3(C(F)(F)F)N=C4SCCN4C3=O)sc2c1 (centres undefined)
x | 0.1% | 0% | -3% | O=C1OC(N2C(=O)CC[C@H]2C(=O)Nc2cccc(F)c2)c2ccccc21 (some centres undefined)
x | -1.3% | x | 10% | COC1=CC(=O)C(OC)=C(OC)C1=O
-2[21.1 µM] | -1.2% | 2% | -18% | COc1ccc(-n2ccnc2SCC(=O)NCc2ccccc2)c(OC)c1
x | -6.3% | 7% | -17% | COc1ccc(CCNC(=O)C2CCN(C(=O)c3ccc(Br)cc3)CC2)cc1
x | -1.7% | -2% | 15% | O=C(NCCCCNC(=O)c1ccc(F)cc1)c1ccc(F)cc1
x | -0.3% | x | 4% | CN(C)CCN[C@H]1CCC2C3CC=C4C[C@@H](O)CC[C@]4(C)C3CC[C@@]21C (some centres undefined)
x | -2.3% | x | 26% | O=C(NN=Cc1ccccc1O)NN=Cc1ccccc1O
-8 | 1.5% | -2% | 6% | CCC(C)NC(=O)C1CCN(S(=O)(=O)CC)CC1 (centres undefined)
-5 | -2.2% | -18% | 1% | COc1ccc2c(c1)C(C)CC(C)(C)N2C(=O)CSc1ncn[nH]1 (centres undefined)
x | -0.9% | 8% | 62% | Cc1cccc(N(C(=O)c2snc(C(N)=O)c2N)C(C(=O)NCC2CCCO2)c2c[nH]c3ccccc23)c1 (centres undefined)
x | 1.8% | x | 1% | O=C1C=C(c2ccc(Oc3ccccc3)cc2)C[C@@H](c2ccc(F)cc2)C1
x | -3.2% | x | 2% | CCOc1ncccc1C(=O)OCC(=O)NCCCc1ccccc1
x | 0.7% | 3% | 6% | O=C(NC(=S)Nc1ccccc1N1CCOCC1)c1ccc(Br)cc1
x | -2.0% | x | -12% | O=C(Cc1cccc([N+](=O)[O-])c1)Nc1ccc(C(=O)N2CCOCC2)cc1
7 | x | -2% | x | COc1cccc(C2C3=C(CCCC3=O)NC3=C2C(=O)c2ccccc23)c1 (centres undefined)
x | 1.1% | x | -9% | CCOc1cc(/C=N/NC(=O)c2cc(-c3cccc(OC)c3)nc3ccccc23)ccc1O
3 | 3.8% | -15% | 2% | FC(F)(F)c1cccc(-c2ccc(-c3csnn3)o2)c1
-12 | 3.6% | -5% | 0% | CCC(=O)N1CCc2cc(Br)cc(S(=O)(=O)N3CCCCCC3)c21
4 | -3.3% | -24% | -12% | O=c1[nH]c(CSc2ccccn2)nc2c1cnn2-c1ccccc1
-1 | -4.2% | 1% | -16% | O=C(CSc1ncnc2c1oc1ccccc12)Nc1nc2ccccc2s1
3 | -1.5% | -9% | 6% | CCCc1nnc(NC(=O)CCC(=O)N2CCN(C3c4ccccc4-c4ccccc43)CC2)s1
x | 2.0% | -26% | -1% | CCCCc1ccc(NC(=O)NCc2ccccn2)cc1

As entered above.
`FC(F)(F)c1cccc(-c2ccc(-c3csnn3)o2)c1` in GLA inh pH 4.5 is listed with 3
`O=C(NC(=S)Nc1ccccc1N1CCOCC1)c1ccc(Br)cc1` in Rango release inh is listed with 6%
`CCCCc1ccc(NC(=O)NCc2ccccn2)cc1` in miR-21 reporter is listed with -26%

(cont.)
GLA inh pH 4.5 | Rango complex inh | miR-21 reporter | Rango release inh | molecule
x | -5.0% | x | 8% | CC(C)[C@H](NC(=O)c1ccccc1F)C(=O)Nc1ccc2c(c1)OCO2
7 | 0.4% | -4% | 0% | O=C(CSc1ncnc2c1oc1ccccc12)Nc1cccc(F)c1
1 | -0.8% | 0% | -12% | COc1ccc(C(=O)N/C(=C\c2ccccc2)C(=O)NC(CC(C)C)C(=O)O)cc1 (centres undefined)
x | -5.2% | x | 10% | COc1ccc(C(CNC(=O)c2cccc(S(=O)(=O)N3CCOCC3)c2)N2CCOCC2)cc1 (centres undefined)
1 | x | 2% | x | N#CC(C(=O)OC1CCCCC1)c1nc2ccccc2nc1N1CCCCC1 (centres undefined)
-4 | -0.3% | -1% | 3% | Cc1c(NC(=O)CSc2nnnn2-c2ccc(C(=O)O)cc2)c(=O)n(-c2ccccc2)n1C
x | 0.4% | 16% | 16% | CCOc1ccc(CN2CCN(CCCc3ccccc3)C(CCO)C2)cc1 (centres undefined)
-1 | u | -1% | u | CCOC(=O)C1=C(CSc2nc3c(cc2C#N)CN(C)CC3)OC(N)=C(C#N)C1c1ccc(F)cc1 (centres undefined)
-9 | -0.9% | -5% | -2% | CCOc1ccc(/C=N/NC(=O)c2nnn(-c3nonc3N)c2COc2ccc(F)cc2)cc1
6 | -1.6% | 4% | -1% | CCCOC(=O)CN1C(=O)c2ccccc2C1=O
9 | -1.5% | -16% | -1% | COc1ccc(C(=O)NNC(=S)NC2CCCCC2)cc1OC
4 | -2.6% | -5% | 9% | CCSc1nnc(CNc2ccc(F)cc2)n1CC1CCCO1 (centres undefined)
x | -0.4% | -26% | 0% | O=c1c(-c2ccccc2Cl)c[nH]n1-c1ccccc1
1 | -6.3% | -2% | 23% | COC(=O)N/N=C(\C)c1cccs1
10 | 3.0% | -11% | -1% | Cc1csc(NC(=O)c2cc([N+](=O)[O-])cc([N+](=O)[O-])c2)n1
3 | -2.7% | 8% | -3% | CCCn1c(SCC(N)=O)nc2c(c1=O)C1(CCCC1)Cc1ccccc1-2
-1 | 2.8% | -7% | 2% | Cc1ccc(NC2=C(Cl)C(=O)OC2NC(=O)c2ccccc2)cc1 (centres undefined)
x | 0.0% | x | 20% | COc1ccc(S(=O)(=O)NCc2ccncc2)cc1NC(=O)c1ccccc1
x | 3.7% | -1% | 18% | CC(C)c1nnc(SCC(=O)NC2CCCCC2)n1C
-5 | 2.9% | 23% | -8% | Cn1cnc([N+](=O)[O-])c1Oc1ccc2ccccc2c1
x | -1.4% | -7% | -12% | Cc1nc2c(Cl)cccc2c2c1CC(CBr)O2 (centres undefined)
x | 2.8% | 15% | 1% | COc1cc(C(=O)OCCNC(=O)c2ccccc2)cc(OC)c1OC
x | 4.6% | x | -9% | CSCCC(NC(=O)COc1ccccc1)C(=O)N(C)Cc1ccc(SC)cc1 (centres undefined)
x | -5.3% | -3% | 26% | CN1CC(C(=O)Nc2ccc(F)c(Cl)c2)CC1=O (centres undefined)
x | -2.4% | -3% | 9% | CS(=O)(=O)Nc1ccc(C(=O)N2CC(=O)Nc3ccccc32)cc1
6 | -0.9% | -13% | 2% | COc1ccc(-n2c(=S)[nH]c(=O)c3cccnc32)cc1
x | -0.4% | x | -3% | Cc1ccc2nc(SCC(=O)NCCc3ccccc3)nc(=O)n2c1
x | -0.2% | -3% | -10% | Cc1ccc(C(=O)N/C(=C/c2cccnc2)C(=O)N2CCCCCC2)cc1
-8 | 1.3% | -42% | -17% | Cc1ccc(/C=N/NC(=O)c2ccco2)s1
0 | -7.5% | -2% | 12% | CCC(=O)Nc1nc(C)c(Oc2ccccc2)c(=O)[nH]1
x | -2.6% | -8% | -12% | COc1ccc(CN2CCCCC2C(=O)Nc2ccc(OC)c(OCC(C)C)c2)cc1OC (centres undefined)
-9 | -1.1% | 1% | 2% | NS(=O)(=O)c1ccc(NC(=O)N2c3ccccc3Sc3ccccc32)cc1
-5 | 0.5% | u | 5% | O=C(NCCn1cc(SCc2ccc(F)cc2)c2ccccc21)c1c(F)cccc1F
1 | -1.7% | -7% | 12% | O=C(/C=C/c1cccs1)Nc1nc(-c2ccccc2)cs1
-5 | -1.6% | -5% | u | COc1ccc2c(c1)CC1c3c(cc4c(c3-2)OCO4)CC[N+]1(C)[O-] (centres undefined)
x | u | x | u | COc1ccc(C(=O)NCc2csc(C)n2)cc1OC1CCN(C(C)=O)CC1
6 | -2.6% | -2% | -4% | O=C(CCSc1ccc(Cl)cc1)NCc1ccncc1
6 | 2.2% | 4% | -4% | CCn1c(COc2cccc3cccnc23)nnc1SC(F)F
7 | 4.8% | -19% | 3% | Oc1ccccc1-c1cc(-c2ccccc2Cl)[nH]n1
x | u | x | u | CC[C@]12c3[nH]c4cc(-c5ccco5)ccc4c3CCN1C(=O)[C@@H](CC(=O)NCCC1=CCCCC1)C[C@@H]2C(=O)N1CCN(C(=O)c2ccco2)CC1
1 | x | 0% | x | c1coc(C2Nc3cccc4cccc(c34)N2)c1

Whole records, looked up by structure:
COc1ccc(CN2CCCCC2C(=O)Nc2ccc(OC)c(OCC(C)C)c2)cc1OC (centres undefined) across the screens: GLA inh pH 4.5 = x; Rango complex inh = -2.6%; miR-21 reporter = -8%; Rango release inh = -12%
CCn1c(COc2cccc3cccnc23)nnc1SC(F)F across the screens: GLA inh pH 4.5 = 6; Rango complex inh = 2.2%; miR-21 reporter = 4%; Rango release inh = -4%
NS(=O)(=O)c1ccc(NC(=O)N2c3ccccc3Sc3ccccc32)cc1 across the screens: GLA inh pH 4.5 = -9; Rango complex inh = -1.1%; miR-21 reporter = 1%; Rango release inh = 2%
